Assay outcomes from PubChem BioAssay.
gsp agonist – qHTS for Agonist of gsp, the Etiologic Mutation Responsible for Fibrous Dysplasia/McCune-Albright Syndrome: qHTS; Potency, µM (highest dose often 76.9 µM), inactives show top-dose activation (cAMP increase), actives largely listed as activators; AID 624287, 2012; gsp mutant cells, cAMP HTRF, 30 min; control for the full effect not named in the record; actives 0.13% (n = 340,000); active = well fitted activation curve with a large enough effect; inconclusive = small, poorly fitted or top-dose-only effect, or another doubt; inactive = no such curve, though single readings can be large or run the other way; cell line not stated here;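 also: phosphodiesterase inhibitor Ro 20-1724 added with compounds to block cAMP breakdown; potency is read from the fitted curve at half-maximal effect; nearly all actives have a fitted effect of over 60% in size; about a fifth of the inactives were tested at one dose only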
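Cells in DMEM/10% FBS with G418 were pretreated with compounds in DMSO plus […] (300 uM stock) for 30 min at 37C. cAMP was measured by HTRF (cAMP-d2 plus anti-cAMP antibody-K) after 30 min at room temperature.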
D2 PAM – Beta-Arrestin HTS for Positive Allosteric Modulators of the Human D2 Dopamine Receptor: Potentiators; AID 624464, 2012; D(2) dopamine receptor (Homo sapiens), P14416; potentiation, % (test concentration not listed); DiscoveRx D2 beta-arrestin cells, luminescence, 90 min; 100% = 57 uM dopamine signal; actives 0.23% (n = 360,000); active = potentiation of 50% or more; inconclusive = 30% to 50%; inactive = 30% or less;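 also: compound concentration not given in the record; tested on top of an EC20 dose of dopamine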
Target sequence (P14416 whole entry, looked up): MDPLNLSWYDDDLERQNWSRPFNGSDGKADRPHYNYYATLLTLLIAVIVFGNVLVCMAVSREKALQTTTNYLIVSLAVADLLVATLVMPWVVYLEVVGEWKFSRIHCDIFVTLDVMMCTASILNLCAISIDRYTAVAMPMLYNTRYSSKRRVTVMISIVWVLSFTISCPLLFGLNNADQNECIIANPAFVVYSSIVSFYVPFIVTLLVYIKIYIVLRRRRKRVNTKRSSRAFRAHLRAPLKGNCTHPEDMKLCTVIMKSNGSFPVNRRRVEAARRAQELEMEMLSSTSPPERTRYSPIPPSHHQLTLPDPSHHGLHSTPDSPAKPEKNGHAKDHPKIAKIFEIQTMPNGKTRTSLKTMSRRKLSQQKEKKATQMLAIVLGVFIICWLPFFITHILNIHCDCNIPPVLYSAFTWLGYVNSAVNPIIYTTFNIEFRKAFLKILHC
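PathHunter beta-arrestin assay in DiscoveRx D2 cells. Compounds were added with an EC20 of dopamine (50 nM final) for 90 min at 37 deg C. Luminescence was read 1 h after detection reagent, with 57 uM dopamine as the EC100 control.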
gsp antag – qHTS for Antagonists of gsp, the Etiologic Mutation Responsible for Fibrous Dysplasia/McCune-Albright Syndrome: qHTS. gsp-mutant cells, cAMP HTRF, 30 min; control for the full effect not named in the record. Potency, µM (highest dose often 76.9 µM), without a hit: at the highest dose activity change, negative = inhibition, usual class: inhibitors. actives 0.4% (n = 340,000). AID 624288, 2012; active = falling curve of any shape with a large fitted effect; inconclusive = falling curve, mostly with a smaller effect; inactive = flat or rising curve; cell line not stated here;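 also: intracellular cAMP measured with PDE inhibitor Ro 20-1724 present during compound exposure; potency is read from the fitted curve at half-maximal effect; % is scaled to controls: 0 for no effect and ±100 for the full control effect; nearly all actives have a fitted effect of over 65% in size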
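Measurement of cellular cAMP by homogeneous time-resolved fluorescence following a 30 min compound exposure at 37C. The PDE inhibitor […] was present throughout; the assay buffer was DPBS with 0.05% BSA and 0.005% Tween 20.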
Menin-MLL FL inh – qHTS Assay for Inhibitors Targeting the Menin-MLL Interaction in MLL Related Leukemias: Competition With Fluorescein Labeled MLL-derived Peptide | 290,000 tested, under 10 active | Fluorescence polarization, fluorescein-MLL peptide displacement from menin | FP activity change, % at 61.4 µM; inconclusive = falling polarisation curve, or a change in total fluorescence; inactive = total fluorescence flat and polarisation flat or rising; no compound was filed as active; the % refers to the polarisation; negative = inhibition;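 also: % of control where 0% means no effect; inhibitors lower the polarisation; unlabelled MLL peptide was the positive control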
Sfp inh – qHTS Assay for Inhibitors of Bacillus subtilis Sfp phosphopantetheinyl transferase (PPTase). 4'-phosphopantetheinyl transferase ffp (Bacillus subtilis), Q9F4F7. Biochemical Sfp PPTase activity, qHTS. Potency, µM, without a hit: max response, negative = inhibition, actives largely listed as inhibitors. actives 3.5% (n = 310,000). AID 1490, 2009; active = well fitted inhibition curve with a large enough effect; inconclusive = small, poorly fitted or top-dose-only effect, or another doubt; inactive = no such curve, though single readings can be large or run the other way;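 also: the enzyme is Sfp with the accession as filed and its product quenches rhodamine fluorescence; potency is read from the fitted curve at half-maximal effect; 0% = enzyme reaction without inhibitor and -100% = no enzyme wells; top concentration of the series not given in the record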
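After 15 min at room temperature with compound, 15 nM Sfp received 5 uM rhodamine-CoA plus 12.5 uM BHQ-2-ybbR (50 mM Hepes pH 7.6, 10 mM MgCl2). Rate came from the fluorescence difference over 30 min, ex 525/em 598 nm.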
TRPV1 PAM – HTS Assay for Compounds that Act as Potentiators of the Vanilloid Receptor 1; Transient receptor potential cation channel subfamily V member 1 (Homo sapiens), Q8NER1; TRPV1-expressing cells, Fluo-8 calcium influx, capsaicin EC20 potentiation; host cell line not named in the record; control for the full effect not named in the record; potentiation, % at 8.33 µM; actives 0.02% (n = 320,000); active means potentiation above 80%; inconclusive means 30% to 80%; inactive means below 30%; also: 0% is about no effect
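Cells expressing TRPV1 were dye-loaded with Fluo-8 and read kinetically: 10 s baseline, 3 min after compound (agonist portion), then 2 min after EC20 capsaicin (allosteric enhancer portion). Calcium-bound dye fluorescence at 480/520 nm.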
ClpP mod – qHTS Assay for Activators of ClpP. purified B. subtilis ClpP, FRET peptide cleavage, 20 min. Potency, µM (doses to about 57.5 µM), for inactives: at the highest dose activity change, negative = active. actives 1.9% (n = 340,000). AID 651965, 2013; active = well fitted falling curve with a large enough effect; inconclusive = small, poorly fitted or top-dose-only effect; inactive = no such curve, though single readings can be large or run the other way; also: potency is read from the fitted curve at half-maximal effect; the source files actives as falling curves though it sought activators and does not explain the sign; nearly all actives have a fitted effect of over 65% in size; many hits overshoot -100%
Target sequence (P80244 whole entry, looked up): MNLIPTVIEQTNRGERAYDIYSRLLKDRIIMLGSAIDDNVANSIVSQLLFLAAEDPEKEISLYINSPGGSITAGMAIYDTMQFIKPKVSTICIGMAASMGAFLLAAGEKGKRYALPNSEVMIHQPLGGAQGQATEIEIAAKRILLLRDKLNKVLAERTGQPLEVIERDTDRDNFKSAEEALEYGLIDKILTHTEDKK
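Purified B. subtilis ClpP, 10 microg/mL final in Tris/HCl pH8 with KCl, BSA, glycerol and Tween-20, cleaved an Abz/nitrotyrosine-quenched decapeptide. Fluorescence (ex 320, em 430) was read at 0 and 20 min at room temperature. Delta was normalized to 5.8 microM ADEP and DMSO/no-enzyme controls.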
Active calls of the source: *; ? = inconclusive; . = not tested or not shown; [ ] = remark or other dose.

Below each SMILES – gsp agonist, D2 PAM, gsp antag, Menin-MLL FL inh, Sfp inh, TRPV1 PAM, ClpP mod
1) CCCC(=O)N(CCN1CCOCC1)c1nc2cc(C)c(C)cc2s1
    -2%, -19, -17%, ., -4%, 17, -1.0%
2) CC1=NNC(=O)C1Cc1ccccc1C (stereo not given)
    12%[15.4 µM], -5, 9%, ?, 0%, 7, -4.3%
3) O=C(C1COc2ccccc2O1)N1CCN(S(=O)(=O)c2cc(F)ccc2F)CC1 (stereo not given)
    -13%, -3, 1%, ., ., 0, -1.6%
4) O=S(=O)(NCc1cn2ccccc2n1)c1cc(F)ccc1F
    -28%, 14, 6%, -8.2, 1%, 20, -4.0%
5) CC(=O)N/N=C/c1c(C)[nH]n(-c2ccccc2)c1=O
    9%[15.4 µM], -19, ?, -3.5, 15%, 6, .
6) COc1cc(C(=O)NCc2ccc3[nH]c(C)cc3c2)cc(OC)c1OC
    4%, -3, 11%, -11, 10%, 4, -0.1%
7) CCNC(=O)Oc1ccc[nH]c1=O
    -30%[inhibitor], 1, -4%, ?, 25µM*, 10, -7.0%
8) CCc1cccc(NC(=O)C2CCCN(S(=O)(=O)c3cccnc3)C2)c1 (stereo not given)
    -2%, -14, -15%, ., 13%, -26, 1.0%
9) CC(C)(C)C(=O)Nc1cc(NC(=O)C(C)(C)C)cc(C(=O)Nc2c[nH]c(=O)[nH]c2=O)c1
    13%[15.4 µM], -6, 6%, ., ., ., .
10) O=C(CC(=O)Nc1ccc(Cl)cc1)N/N=C\c1cccc(F)c1
    15%[15.4 µM], -5, 11%, ., 14%, -2, .
11) COC(=O)N/N=C\c1ccccc1OC/C=C/c1ccccc1
    13%, -16, -6%, -0.6, 9%, 11, -7.2%
12) O=C(O)CCC(=O)Nc1sc2c(c1C(=O)NCc1ccccc1)CCCC2
    ?, 1, -28%, 0.5, 23%, -27, -1.9%
13) Cc1cc(Nc2ccccc2)nc(NCc2ccccc2)n1
    -54%[inhibitor], -25, 0%, 3.3, 25µM*, -23, -13%
14) COCCNc1ccc(N2C(=O)C3CCCCC3C2=O)cc1[N+](=O)[O-] (stereo not given)
    ?, 7, 9%, 5.7, 22%, -1, .
15) CS(=O)(=O)N1CCN=C1SCc1ccccc1
    ?, -7, 0%, ., 19%, 18, -0.5%
16) Cc1ccc(N2C(N)=C(C#N)C(c3ccsc3)C3=C2CC(C)(C)CC3=O)cc1 (stereo not given)
    -23%, -25, -16%, 2.6, 1%, -8, -1.7%
17) COC(=O)c1c(-c2cccs2)csc1NC(=O)CN1CCOCC1
    ?, -13, -5%, 2.0, -3%, -9, -5.2%
18) Cc1ccccc1NS(=O)(=O)c1ccc(C(=O)NNC(=O)c2ccccc2O)cc1
    2%, -1, -3%, ., ., 8, 1.7%
19) Cc1ccccc1C(=O)NC1CCN(CC(=O)NC2CCCCC2)CC1
    23%, -6, 7%, -3.4, 15%, 4, .
20) Cc1ccccc1NC(=O)Cc1nnc(NC(=O)Nc2ccccc2F)s1
    17%[15.4 µM], -8, 5%, 12, -24%, 15, .
21) COc1ccc(N2CCN(S(=O)(=O)c3ccc4c(c3)N(C(C)=O)CCO4)CC2)cc1
    26%, -7, -13%, -3.5, 12%, -15, 0.5%
22) COCc1[nH]c(=S)[nH]c(=O)c1C
    8%[15.4 µM], -10, -6%, 2.1, 79µM*, -7, 0.0%
23) N#CC1(NC(=O)Cn2cc(C(F)(F)F)cc(Cl)c2=O)CCCCC1
    ?, -12, 2%, ., 6%, -5, -4.7%
24) CN1CCN(CCCCC(=O)c2ccccc2)CC1
    10%, -39, -4%, -2.4, 8%, -2, -3.8%
25) CC(C)(C)c1ccc(C(=O)NC(=O)COC(=O)c2ccc(Br)o2)cc1
    19%, 11, 1%, ., ., ., 32µM*
26) O=C(Nc1nnc(CCc2ccccc2)s1)c1ccco1
    -13%, -2, 11%, -1.6, 12%, 4, -4.9%
27) CCCCN(C1CCS(=O)(=O)C1)S(=O)(=O)c1ccc(OC)c(OC)c1 (stereo not given)
    -44%[inhibitor], -20, 12%, ., ., -5, -1.2%
28) CCc1c(C)nc2cc(-c3ccc(OC)cc3)[nH]n2c1=O
    23%, 10, -7%, 3.2, 14%, -2, 32µM*
29) N/C(=N\OC(=O)COc1ccc([N+](=O)[O-])cc1)c1cccnc1
    8%[15.4 µM], -8, 1%, 2.0, 15%, 5, .
30) CC(=O)c1ccc(NC(=O)CCOc2cc(C)ccc2C)cc1
    -15%, -5, -12%, -0.9, 6%, -11, .
31) O=C(Nc1ccccc1C(=O)N1CCN(Cc2ccccc2)CC1)c1ccc(F)cc1
    1%[15.4 µM], -26, 1%, ., 11%, 1, -2.4%
32) COc1ccc(CC(=O)Nc2ccc(C(N)=O)cc2)cc1
    -5%[15.4 µM], -9, -2%, 0.5, 2%, 10, .
33) Cc1cc(N)nc2nc(C(F)(F)F)nn12
    16%[15.4 µM], -16, -2%, -2.7, 5%, ?, 0.0%
34) COc1ccc(/C=N/NC(=O)/C(=C/c2ccccc2)CCO)cc1
    2%[15.4 µM], -7, 1%, -1.2, 3%, -8, -2.4%
35) COc1cc(N=Cc2c(CO)cnc(C)c2O)cc(OC)c1OC
    -15%, -2, -1%, 8.5, 5%, 20, ?
36) CCn1ncc(N2CCOCC2)c(Cl)c1=O
    -43%[inhibitor], 4, -1%, -1.2, 9%, -1, -0.5%
37) O=C(NCC(c1ccco1)N1CCCCC1)c1ccc(OCc2ccccc2)cc1 (stereo not given)
    -9%[15.4 µM], -12, 7%, -0.4, 14%, -7, -1.9%
38) Cc1ccccc1N=C1c2ccccc2C(=O)C1[N+](=O)[O-] (stereo not given)
    -186%[inhibitor], 0, 8%, 1.0, 21%, -4, 0.8%
39) Cc1c(NC(=O)c2cc(-c3ccc(F)cc3)nc3ccccc23)c(=O)n(-c2ccccc2)n1C
    -1%, 10, -4%, ., ., ., .
40) C=CCn1c(SCC(=O)Nc2cc(C)ccc2C)nnc1-c1cnccn1
    14%, -12, 2%, -4.3, 7%, 3, 2.4%
41) COc1ccc(C(=O)NCCn2ccc3ccccc32)c(OC)c1
    22%, -17, -14%, -5.8, 0%, 0, -0.6%
42) CCCC1Cc2c(sc3ncnc(N)c23)CO1 (stereo not given)
    0%, 2, 14%, 1.8, -7%, -7, ?
43) Cc1nc(C)c(-c2csc(NCc3ccccc3)n2)s1
    ?, -14, -15%, 3.7, 56µM*, -5, -0.2%
44) CCOC(=O)c1ccc(NS(=O)(=O)c2cc(-c3nnnn3CC)ccc2OC)cc1
    -38%[inhibitor], 8, -20%, 1.3, -8%, 16, 1.1%
45) COc1cccc(NC(=O)c2ccccc2-c2ccccc2C(=O)O)c1
    -23%, 0, 6%, -8.1, 1%, 1, .
46) COc1ccc(O)c(C=Nc2cc(C)on2)c1
    8%, 1, 5%, -0.5, -9%, -11, -0.6%
47) CCn1c(-c2cc(-c3ccc(C)cc3)nc3ccccc23)n[nH]c1=S
    21%, -15, -12%, -2.3, -9%, 6, .
48) COc1ccc(C2C(C(=O)NCc3ccco3)CCC(=O)N2c2ccc(OC)cc2)cc1 (stereo not given)
    15%, -12, 9%, 0.3, 7%, 16, -1.9%
49) COCCNCC(=O)Nc1nc(C)cs1
    -5%[15.4 µM], -1, ., 4.8, 45µM*, 11, .
50) Cc1cccc(N(C)S(=O)(=O)c2csc(C(N)=O)c2)c1
    12%[15.4 µM], -5, -13%, 1.6, 6%, 17, -0.6%
51) O=[N+]([O-])c1cc(Br)ccc1NS(=O)(=O)c1ccccc1
    -38%[inhibitor], -7, -3%, ., ., ., .
52) Cc1oc2ccc(OCc3ccc(F)cc3Cl)cc2c1C(=O)O
    -30%, -7, 9%, -2.2, 12%, 12, -1.7%
53) COc1ccc2oc(=O)c(C(=O)NCc3ccc(F)cc3)cc2c1
    17%[15.4 µM], 2, -10%, -0.3, 5%, -7, 0.8%
54) COc1cccc(/C=N/NC(=O)C(=O)NCc2ccco2)c1OC
    4%, -28, -5%, 0.0, -2%, -4, 1.8%
55) CCOC(=O)C(Cc1c(F)cccc1Cl)c1ccnc2nc(N)nn12 (stereo not given)
    8%, -9, -4%, -2.8, -3%, 2, 3.7%
56) COc1cc(NC(=O)Cn2nc(-c3ccc(F)cc3)ccc2=O)ccc1-n1cnnn1
    -31%[inhibitor], -4, -1%, -1.3, -17%, 0, -1.7%
57) CC(C)C[C@H](NC(=O)NCCC1=CCCCC1)C(=O)O
    -27%, -1, 19%, 4.0, 15%, 8, -0.7%
58) O=C(CCNC(=O)N1CC(=O)Nc2ccccc21)Nc1cccc(Cl)c1
    3%, -34, 0%, ., 4%, 26, -0.3%
59) COc1ccc(C(=O)Nc2ccc(Cl)cc2C(=O)N2CCCC(C)C2)cc1 (stereo not given)
    -44%[inhibitor], -14, -15%, -1.5, 7%, -18, -3.1%
